eIF4H FP inh: inhibitors of RNA binding by human eIF4H; AID 2012; eIF4H fluorescence polarization binding assay; Q15056; inhibition, % at 35 µM; 290,000 tested, 0.94% active;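 active = 50% or more with normal probe brightness, or confirmed in later tests; about a fifth of its hits are not listed in these tables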;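 also: calls also rest on retests at 20 µM and on dose response follow-up; 0% = protein and probe with vehicle and 100% = probe without protein; strong numbers were not always called active; many hits fall short of the cut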
HIV Env fusion: inhibitors of HIV Env-mediated cell fusion; HeLa-JRFL Env/CEM21 cell fusion, luciferase; inhibition, % at 12.3 µM; 360,000 tested, 1.1% active; AID 651610;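 active = mean replicate inhibition score of at least 50 and every replicate individually at or above 50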;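 also: 0% = plate neutral controls and 100% = maraviroc near 300 nM; one replicate is shown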
Yeast UUG start: alters start codon recognition fidelity in yeast | S. cerevisiae UUG-firefly luciferase reporter, luminescence/redox ratio | activity score, % at 18.7 µM | 350,000 tested, 0.13% active;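 active = replicate mean at a twofold rise or more, about +100% in these data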;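 also: firefly luciferase made from a UUG start codon reports start codon fidelity; reporter light over untreated wells divided by growth signal over untreated wells; some hits fall short of that in this replicate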
CSC inhib: blocks cancer stem cells; cancer stem cell-like cells viability, luminescence; inhibition, % at 7.5 µM; 300,000 tested, 1.1% active; AID 2717;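 active = mean at 75% or more and at least half the replicates too; tested in HMLE shEcad cells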;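 also: 0% = median of negative and 100% = median of positive control wells; the first replicate is given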
MT1-MMP act inh: inhibitors of human MT1-MMP activation; HT1080 RFP-PRO-GFP cells, GFP/RFP ratio fluorescence, overnight; percent of plate control window, DMSO zero; GFP/RFP ratio change, % at 20 µM; 360,000 tested, 0.061% active; AID 651647;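 active = GFP/RFP ratio change of at least 30% with cell ATP level not reduced by more than half and red fluorescence within 50% of control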; also: strong numbers were not always called active
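Assay system – RFP-PRO-GFP reporter HT1080 cells · Compound dosing – single dose of 20 µM compound, 1% DMSO final · Incubation – overnight compound exposure at 37 °C · Measure – GFP/RFP fluorescence ratio · Benchmarks – DMSO wells and RFP-L50D-GFP cells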
PABP polyA inh: PABP-poly(A) binding inhibition; PABP-poly(A) RNA binding, fluorescence polarization; 290,000 tested, 1% active; inhibition, % at 35 µM;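 active = 50% or more with normal probe brightness, or confirmed in later tests; about a fifth of its hits are not listed in these tables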;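 also: calls also rest on retests at 20 µM and on dose response follow-up; controls were probe without protein and protein plus probe with vehicle; some compounds called inactive have numbers as strong as hits; many hits fall short of the cut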
Rce1 inh: blocks yeast Ras-converting enzyme | yeast membranes, quenched prenylated peptide cleavage fluorescence | 290,000 tested, 0.27% active | calls only | Q03530 | AID 2563;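 active = fall in fluorescence gain of 50% or more versus controls, with final raw signal at or below 3038400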;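 also: plate controls were neutral control wells for no effect and wells lacking membranes for full effect; tested at 10 µM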
Target sequence (Q03530 whole entry, looked up): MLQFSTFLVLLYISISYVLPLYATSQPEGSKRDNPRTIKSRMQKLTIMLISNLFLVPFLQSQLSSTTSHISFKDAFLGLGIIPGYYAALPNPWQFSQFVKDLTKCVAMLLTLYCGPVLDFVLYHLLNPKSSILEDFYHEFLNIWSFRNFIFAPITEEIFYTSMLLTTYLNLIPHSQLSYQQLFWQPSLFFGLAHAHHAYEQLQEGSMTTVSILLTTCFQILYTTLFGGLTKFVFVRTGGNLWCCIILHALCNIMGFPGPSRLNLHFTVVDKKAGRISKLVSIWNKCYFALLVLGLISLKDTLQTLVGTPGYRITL
eIF4H FP inh retest: recorded beside eIF4H FP inh, whose call it bears; inhibition, %; compound at 20 µM; confirmation average;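 mean of two retest wells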
PABP polyA inh retest: recorded beside PABP polyA inh, whose call it bears; inhibition, %; compound at 20 µM; confirmation repeats;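 mean of two retest wells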
MT1-MMP act inh RFP: recorded beside MT1-MMP act inh, whose call it bears; RFP signal change, %; measured here: RFP expression control read;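 0 = vehicle wells; hits needed this value within 50% of zero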
The depositor's hits bear a star; i = inactive; / = no result given.

SMILES	eIF4H FP inh	HIV Env fusion	Yeast UUG start	CSC inhib	MT1-MMP act inh	MT1-MMP act inh RFP	PABP polyA inh	Rce1 inh	others
Cc1cccc(OCC(=O)O/N=C(\N)Cc2ccc([N+](=O)[O-])cc2)c1	-7	-52	9	7	-1	1	14	i
COc1ccc2c(c1)SCCC2=O	5	/	/	-1	1	-1	-1	i
CCC(C)(NC(=O)CNC(C)=O)C(=O)NC1CCCCC1 (centres undefined)	-5	-47	-22	-3	-2	-2	-1	i
Cc1occc1C(=O)N(C)CC1CCCN(CCc2ccc(Cl)cc2)C1 (centres undefined)	/	-1	-14	/	5	5	/	/
CC(C)(C)N1CC(COc2ccccc2)OC1=O (centres undefined)	-8	-2	-12	-2	0	3	0	i
Cc1ccc(/C=N/Nc2ncnc3nc[nH]c23)cc1	-3	-11	/	3	0	-3	-8	i
CC(c1ccccc1)n1cc(C(=O)NCc2ccncc2)nn1 (centres undefined)	-14	-71	-1	/	0	2	-9	i
O=C(c1cccc(Br)c1)N1CCN(C(=O)c2cccc(Br)c2)CC1	2	13	-1	-12	-1	-5	-6	i
COc1ccc(CNC(=O)C2CC(c3cccc([N+](=O)[O-])c3)=NO2)cc1 (centres undefined)	1	-46	-1	42	6	2	5	i
Nc1nonc1-c1noc(-c2ccccc2)n1	10	/	/	-6	3	3	-6	i

Compounds from the list above that contain an aryl methoxy group, in the order listed:
SMILES	eIF4H FP inh	HIV Env fusion	Yeast UUG start	CSC inhib	MT1-MMP act inh	MT1-MMP act inh RFP	PABP polyA inh	Rce1 inh	others
COc1ccc2c(c1)SCCC2=O	5	/	/	-1	1	-1	-1	i
COc1ccc(CNC(=O)C2CC(c3cccc([N+](=O)[O-])c3)=NO2)cc1 (centres undefined)	1	-46	-1	42	6	2	5	i

(more compounds)
SMILES	eIF4H FP inh	HIV Env fusion	Yeast UUG start	CSC inhib	MT1-MMP act inh	MT1-MMP act inh RFP	PABP polyA inh	Rce1 inh	others
OC[C@H]1O[C@@H](c2nc(-c3ccc4c(c3)CCO4)no2)[C@H](O)[C@@H](O)[C@H]1O	/	13	-16	/	5	3	/	/
COc1ccc(CCC(=O)OC(C)C(=O)c2ccc(C)cc2)cc1 (centres undefined)	0	-147	-12	-10	-3	2	-10	i
O=C1c2ccccc2C(=O)N1CCOc1ccccc1	/	/	-4	-3	-3	2	/	i
O=C(c1cc(-c2ccc(F)cc2)no1)N1CCN(Cc2ccc3c(c2)OCO3)CC1	-16	21	5	-10	-1	-3	-2	i
COc1cc(C(=O)c2ccccc2)c(OC)cc1C(=O)Nc1ccc(O)cc1	-6	-14	/	22	4	-2	0	i
Cc1cccc(N2CCN(CC(=O)N(C)Cc3ccccc3)CC2C)c1 (centres undefined)	-7	4	-12	-4	3	1	-3	i
CCCCNC1c2ccccc2C(=O)N1Cc1ccccc1 (centres undefined)	5	5	-4	-2	-2	5	0	i
S=c1[nH]c2cc(Br)cnc2[nH]1	13	-58	/	-10	-2	1	16	i
Cc1ccc2nc(CSc3nnc(-c4ccncc4)n3C)cc(=O)n2c1	21	15	/	-10	-6	-2	-14	i
CCC(NC(=O)NC1CCCCC1)c1ccccc1 (centres undefined)	-1	-11	/	-17	1	4	-1	i
CCOc1ccc(C2C(C#N)=C(N)Oc3nc[nH]c(=O)c32)cc1OC (centres undefined)	5	-9	-13	-20	-1	1	-4	i
Cc1cccc(NC(=O)C(C)Sc2ncnc3sccc23)c1 (centres undefined)	/	3	-12	/	0	-13	/	/
CCn1cc(CNC(=O)c2cccc([N+](=O)[O-])c2)cn1	-4	-11	-7	-11	0	-1	0	i
CCOC(=O)N1CCN(C(=O)Nc2cccc(Cl)c2)CC1	7	-46	-18	-7	4	-2	-7	i
Cn1c(N2CCOCC2)c(/C=N/OC(=O)c2cccnc2Cl)c2ccccc21	3	-6	/	/	-7	1	-5	i
C=CCSc1nnc(NC(=O)CSCc2c(C)noc2C)s1	/	-20	/	-2	3	4	/	/
Cc1nc(Cl)c(C(=O)NC(C)(C)C)c(C)c1Cl	9	1	-11	/	5	8	0	i
CCCCn1cnc2c(SCc3ccc([N+](=O)[O-])cc3)nc(N)nc21	/	-5	-14	/	-2	-6	/	/
CCOc1ccc(Cc2noc3c2C(=O)CCC3)cc1OCC	-1	-2	0	-7	5	4	28	i
Cc1nc2ccc(C(=O)OCc3nnc(-c4ccccc4)o3)cc2nc1C	8	0	20	/	-2	1	8	i

No new results follow: an excerpt of the list.
SMILES	eIF4H FP inh	HIV Env fusion	Yeast UUG start	CSC inhib	MT1-MMP act inh	MT1-MMP act inh RFP	PABP polyA inh	Rce1 inh	others
CCOc1ccc(Cc2noc3c2C(=O)CCC3)cc1OCC	-1	-2	0	-7	5	4	28	i
Cc1nc2ccc(C(=O)OCc3nnc(-c4ccccc4)o3)cc2nc1C	8	0	20	/	-2	1	8	i

(more compounds)
SMILES	eIF4H FP inh	HIV Env fusion	Yeast UUG start	CSC inhib	MT1-MMP act inh	MT1-MMP act inh RFP	PABP polyA inh	Rce1 inh	others
O=C(COC(=O)COc1ccc(Cl)cc1)NCc1ccc2c(c1)OCO2	/	-9	-17	-17	3	7	/	/
O=C(CCn1c(=O)oc2ccccc21)NCCCN1CCCC1=O	-12	23	-7	-9	7	7	-5	i
O=C(O)c1cc(N2C(=O)C3CCCCC3C2=O)ccc1NCc1cccnc1 (centres undefined)	10	10	/	/	-3	0	18	i
CN1CCCN(C(=O)c2cc(-c3cccc4ccccc34)nc3ccccc23)CC1	3	5	-23	-2	0	-5	6	i
CCC(=O)N(Cc1ccco1)Cc1cc2cc3c(cc2[nH]c1=O)OCO3	3	-11	/	4	0	2	-1	i
Cc1ccc(NC(=S)c2ccncc2)cc1	-19	2	-17	-13	1	-11	-2	i
C=CCC1(C)C(=O)N(c2ccccc2)c2ccccc21 (centres undefined)	6	/	-16	-7	1	0	6	i
COc1ccc(C)cc1NC(=O)CN1C(=O)COc2ccc(C)cc21	-3	10	-2	-6	12	-1	8	i
O=C(N[C@H](CO)c1ccccc1)[C@H]1O[C@@H](n2ccc(=O)[nH]c2=O)[C@H](O)[C@@H]1O	/	-5	-6	/	2	3	/	/
OCC[C@@H]1C[C@@H](O)[C@H](O)[C@]2(CCCO2)O1	/	-7	-13	-11	0	3	/	i
Cc1ccc(/C=N/NC(=O)c2ccc(Cn3cc([N+](=O)[O-])cn3)o2)cc1	-2	/	7	13	-2	0	1	i
CCN1CCN(C(=O)C(=O)c2cn(CC(=O)N3CCCCCC3)c3ccccc23)CC1	10	-2	7	-9	-1	5	2	i
COc1ccc(OC)c(Nc2nc(N(C)c3ccccc3)nc(N)c2[N+](=O)[O-])c1	0	31	/	43	2	0	5	i
c1ccc(Nc2nc(N3CCCC3)nc(N3CCOCC3)n2)cc1	/	61*	-4	-2	-7	-5	/	i
Cc1[nH]c2ccccc2c1/C=N/NC(=O)c1cc(C(C)C)[nH]n1	-5	-27	/	8	-3	-8	0	i
CCOC(=O)c1sc2ccc(S(=O)(=O)N3CC(C)CC(C)C3)cc2c1N (centres undefined)	-4	35	/	-7	-8	-16	-9	i
CCOC(=O)N1CCN(C(=O)c2ccc(OC)cc2)CC1	5	-20	/	-2	-1	0	-2	i
Cn1c(=O)cc(OCCCC(=O)NCc2ccccn2)c2ccccc21	-11	-4	-16	-18	6	7	-8	i
O=C(COC(=O)c1cccnc1)NC1CCCc2ccccc21 (centres undefined)	78*	-20	/	/	0	7	-8	/	eIF4H FP inh retest=78*;PABP polyA inh retest=42
CCC(CC)c1nnc(NC(=O)CCS(=O)(=O)Cc2ccccc2)s1	-27	-1	-5	-7	-3	-3	-4	i
CC[n+]1ccc2cc(OC)c(OC)cc2c1Cc1ccc(OC)c(OC)c1	6	/	1	-2	0	4	57*	i
CCOC(=O)c1c(-c2ccc(C)cc2)csc1NC(=S)NC(=O)c1ccccc1	-2	-11	-16	/	-8	-7	-6	i
COc1ccc2oc(C(=O)OCC(=O)NCCc3ccccc3)c(C)c2c1	/	1	-9	/	4	4	/	i
COC(=O)CCC(=O)c1oc2ccc(OC)cc2c1N	1	/	-53	6	5	5	2	i
CN(C)c1nnnn1Cc1ccccc1	-25	21	/	18	-2	1	8	i
COC(=O)c1ccccc1-n1c(CCC(=O)O)ccc1-c1ccccc1	-3	-1	-4	10	-4	-2	-8	i
Cn1c(Cn2nnc3ccccc32)nnc1SCC(=O)c1ccccc1F	-1	-1	/	5	7	2	13	i
Cc1nc2sc(C(c3ccc(Cl)cc3)N3CCN(c4ccccc4F)CC3)c(O)n2n1 (centres undefined)	8	-84	10	8	-5	0	0	i
CC(NC(=O)[C@H](C)NC(=O)c1ccco1)c1ccc(S(N)(=O)=O)cc1 (some centres undefined)	-4	1	-16	/	0	1	-2	i
CSc1ccc(CN2CCCCCC2)cc1	1	9	-18	-3	1	2	15	i
NC(=O)c1ccccc1NC(=O)c1ccc2c(c1)OCO2	9	-25	-24	5	4	3	11	i
CC(C)Nc1ncnc2c1ncn2[C@H]1CN(Cc2ccc(F)cc2)C[C@@H](CO)O1	/	15	-13	/	1	1	/	/
COc1ccc(S(=O)(=O)Cc2ccc(C(=O)NCCc3cc(OC)ccc3OC)o2)cc1	-7	15	/	4	0	-1	20	i
Cc1csc(=O)n1CCC(=O)OCC(=O)c1ccc(Br)cc1	/	4	-9	3	-1	7	/	i
CCNC(=S)Nc1ccc(Cl)cc1Cl	1	-5	-26	5	-1	-3	6	i
O=C(COc1ccccc1)NCc1nnc2c3ccccc3c(-c3ccccc3)nn12	-13	-2	-7	-9	4	7	-7	i
Oc1ccccc1C=NNC(=S)Nc1ccc(F)cc1	/	-78	-25	/	3	-12	/	/
Cc1cc(-c2n[nH]c(=S)n2/N=C/c2ccc(C)o2)n[nH]1	-5	-4	/	-7	5	6	-5	i
C1CCc2c(nc3nnnn3c2N2CCOCC2)C1	-5	-17	-3	-7	-1	1	10	i
Cc1ccc(C(=O)NC23CC4CC(CC(C4)C2)C3)c(Cl)c1	3	-1	-16	28	1	-4	-4	i
CC1(C)CC(Cc2cccc(C(F)(F)F)c2)N(C(=O)OC(C)(C)C)C1 (centres undefined)	/	33	-6	/	2	3	/	/
CCOc1ccccc1-c1nnc(SCC(=O)NC2CC2)n1CC	-19	-8	-15	-2	-1	6	-7	i
Cc1ccc(NCC(=O)N=Nc2c(O)[nH]c3ccc([N+](=O)[O-])cc23)cc1	-1	-15	/	-10	/	/	4	i
CC(=O)N1CCN(CC(=O)Nc2cc(S(=O)(=O)N3CCOCC3)ccc2C)CC1	-5	-3	/	-10	-8	-5	8	i
COc1ccc(Nc2nc(-c3cccs3)nc3ccccc23)cc1	3	-2	-9	78*	-8	-7	5	i
O=c1c2ccccc2c(C=NCCCN2CCOCC2)c(O)n1Cc1ccc2c(c1)OCO2	0	10	/	-7	-1	1	10	i
COc1ccc(CN2C(=O)C(C)Oc3ccccc32)cc1 (centres undefined)	-1	1	-7	-23	1	1	-1	i
CCN(CC)C(=O)[C@H]1CC(CC(=O)NCc2ccc(OC)c(OC)c2)C(=O)N2CCc3c([nH]c4ccc(OC)cc34)[C@]12C (some centres undefined)	/	-22	-8	/	0	1	/	/
Cc1cc(C)c(C)c(Oc2ncnc(N)c2[N+](=O)[O-])c1	42	11	/	-10	-1	1	-3	i
COc1ccc(/C=C(\NC(=O)c2ccc(C)cc2)C(=O)NCCCN2CCOCC2)cc1OC	6	0	-11	-15	3	2	3	i
CCN(CC)CCN(C(=O)C1=COCCO1)c1nc2cc(C)cc(C)c2s1	-14	39	-2	18	4	3	-1	i
O=C(COc1ccc2ccccc2c1)N1CCN(c2ccccc2O)CC1	-9	/	3	-6	-6	3	-4	i

Screening data deposited in PubChem BioAssay by several laboratories.
